# High-throughput results deposited in PubChem by National Center for Advancing Translational Sciences (NCATS).
# Sfp PPTase inh = blocks B. subtilis Sfp PPTase activity; Q9F4F7; Biochemical Sfp PPTase activity, qHTS; Potency, µM, without a hit: max response, negative = inhibition, most hits filed as inhibitors; hit rate 3.5% among 310,000; AID 1490; active = well fitted inhibition curve with a large enough effect; inconclusive = small, poorly fitted or top-dose-only effect, or another doubt; inactive = no such curve, though single readings can be large or run the other way;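 also: the enzyme is Sfp with the accession as filed and its product quenches rhodamine fluorescence; potency is read from the fitted curve at half-maximal effect; 0% = enzyme reaction without inhibitor and -100% = no enzyme wells; top concentration of the series not given in the record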
#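 Reaction rates are the 30-min fluorescence difference (ex 525, em 598 nm) in wells containing 15 nM Sfp, 5 uM rhodamine-CoA and 12.5 uM BHQ-2-YbbR at pH 7.6 with 10 mM MgCl2.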
# Menin MLL FP FL = inhibitors of human menin-MLL interaction, wild-type MLL peptide. Fluorescence polarization, fluorescein-MLL peptide displacement from menin. FP activity change, % at 61.4 µM. AID 1766. 290,000 tested, under 10 active; inconclusive = falling polarisation curve, or a change in total fluorescence; inactive = total fluorescence flat and polarisation flat or rising; no compound was filed as active; the % refers to the polarisation; negative = inhibition;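 also: % of control where 0% means no effect; inhibitors lower the polarisation; unlabelled MLL peptide was the positive control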
# Active calls of the source: *; u = inconclusive; & = joins results of further samples; [ ] = remark or other dose. These rows are one share of the data, so the mix of outcomes need not match the whole.
# Every second line gives: Sfp PPTase inh	Menin MLL FP FL
CCCn1c(-c2ccc(F)cc2)nc2c(NCCCN(CC)CC)nc(C)nc21
  4%	1.0
COC(=O)[C@@H]1CC[C@H](C)[C@@H](c2ccc(C)cc2)N1C(=O)c1ccc(/C=N\O[C@@H](C)c2cn([C@H]3COC[C@H]3O)nn2)cc1
  -15%	-1.6[11.7 µM]
O=C1C2=CC[C@H]3C(=O)N(Cc4ccc5c(c4)OCO5)C(=O)[C@@H]3[C@@H]2[C@H](O)[C@@H]2O[C@H]12
  -4%	-4.3[11.7 µM]
CC(=O)OC[C@@H]1O[C@H](CCON=C(C)C)C=C[C@@H]1OC(C)=O
  9%	-6.7[11.7 µM]
CC(C)Cc1ccc([C@@H](C)C(=O)NS(C)(=O)=O)cc1
  u	4.0
C=CCSC[C@@H]1Nc2cc(Cl)c(S(N)(=O)=O)cc2S(=O)(=O)N1
  0%	0.6[24.8 µM]
O=S(=O)(CCc1ccccc1)c1nnnn1C1CCCCC1
  13%	-0.2
COc1ccccc1CC(=N)N1C[C@@H]2C(=O)CCC(c3ccccc3)(c3ccccc3)[C@@H]2C1
  -11%	u
C=CCOc1ccc(CC(=O)O)cc1Cl
  -8%&19%	-2.8&-2.9
CC(C)C[C@H](NC(=O)CNC(=O)[C@H](C)NC(=O)[C@H](CC(C)C)NC(=O)[C@H](CCCNC(=N)N)NC(=O)[C@H](Cc1cnc[nH]1)NC(=O)[C@@H](NC(=O)[C@@H](NC(=O)[C@@H]1CSSC[C@H](NC(=O)[C@@H](N)CO)C(=O)N[C@@H](CC(N)=O)C(=O)N[C@@H]([C@@H](C)O)C(=O)N[C@@H](C)C(=O)N[C@@H]([C@@H](C)O)C(=O)N1)C(C)C)[C@@H](C)O)C(=O)N[C@@H](CC(C)C)C(=O)N[C@@H](CO)C(=O)N[C@@H](CCCNC(=N)N)C(=O)N[C@@H](CO)C(=O)NCC(=O)NCC(=O)N[C@H](C(=O)N[C@H](C(=O)N[C@@H](CCCCN)C(=O)N[C@@H](CC(=O)O)C(=O)N[C@@H](CC(N)=O)C(=O)N[C@@H](Cc1ccccc1)C(=O)N[C@H](C(=O)N1CCC[C@H]1C(=O)N[C@H](C(=O)N[C@@H](CC(N)=O)C(=O)N[C@H](C(=O)NCC(=O)N[C@@H](CO)C(=O)N[C@@H](CCCCN)C(=O)N[C@@H](C)C(=O)N[C@@H](Cc1ccccc1)C(N)=O)C(C)C)[C@@H](C)O)C(C)C)C(C)C)C(C)C
  3%	-0.2
CNc1nc(Cl)nc2c1ncn2CC(COC(=O)C(C)(C)C)COC(=O)C(C)(C)C
  17%	4.8
CN(Cc1cnc2nc(N)nc(N)c2n1)c1ccc(C(=O)N[C@H](CCC(=O)O)C(=O)O)cc1
  34%[activator]	u
C/C=C/OC(=O)NC(c1cccc(C)c1)[C@@]1(C(=O)OCC)CCCC1=O (stereo partly specified)
  -10%	3.7[11.7 µM]
CCN1C(=O)[C@H]2[C@@H]3[C@H](O)C=CC(=O)[C@H]3CC[C@H]2C1=O
  5%	-0.4[11.7 µM]
CCCCCCCC1=CC2=CC(=O)C(C)(O)C(=O)C2=CN1CCCC (stereo unspecified)
  -8%	10[11.7 µM]
C[C@H]1Cc2c(COc3ccccc3)nc3c(c2CO1)CN(C(=O)NCc1ccco1)CC3
  2%	0.7[11.7 µM]
C=CC1=C(C)C2=NC1=CC1=NC(=CC3=NC(=CC4=NC(=C2)C(C)=C4CCC(=O)O)C(CCC(=O)O)=C3C)C(C=C)=C1C.[Zn]
  4.5µM*	u
O=C1[C@@H]2C[C@@H]3C[C@H]1C[C@@](O)(C3)C2
  2%	-4.4
O=C1c2ccccc2CC[C@H]1CNCCc1ccc(O)cc1
  u	3.2
CCOC(=O)c1c(C)[nH]c2ccc3c(c12)CN1CCc2cc(OC)ccc2[C@@H]1O3
  u	u

# Later entries
# Every second line gives: Sfp PPTase inh	Menin MLL FP FL
CCC/C=C(\CCC)C(NC(=O)c1ccc(C(F)(F)F)cc1)c1ccc(C(F)(F)F)cc1 (stereo unspecified)
  17%	-3.1
CC(C)[C@@H]1[C@H]2CC[C@H](C2)[C@H]1N
  -3%	-16
Fc1ccc(Cl)cc1-c1nc(Nc2ccncc2)c2nccnc2n1
  5%	0.5
CCN1C(=O)[C@H]2[C@H]3[C@H](O)[C@H](O)C/C(=N/OC[C@@H](O)COCc4ccco4)[C@H]3CC[C@@H]2C1=O
  -2%	-2.1[11.7 µM]
CON(C)C(=O)c1nnc2c(n1)[nH]c1ccccc12
  8%	1.9[11.7 µM]
C=CC1=C2C=C(C3CC3)N(Cc3ccc4c(c3)OCO4)C=C2C(=O)C(C)(OC(=O)c2ccco2)C1=O (stereo unspecified)
  4%	9.9[11.7 µM]
COC(=O)NC(CC(C)=O)c1ccc(Cl)cc1 (stereo unspecified)
  15%	-0.8[11.7 µM]
CO[C@H]1COC(=O)[C@H](C)COC(=O)[C@H](C)NC(=O)C/C=C\[C@H]1C
  19%	0.5[11.7 µM]
CCOC(=O)CNC(=O)O[C@H]1C(=O)c2cc(OC)ccc2O[C@@H]1c1ccc(OC)c(Br)c1
  18%	6.7
COC(=O)CCC(C)C1CCC2C3C(C[C@H](O)C12C)C1(C)CC[C@@H](O)CC1C[C@H]3O (stereo partly specified)
  7%	35[activator]
Cc1nc(NCc2ccccc2)c2nc(-c3ccccc3)n(CCN3CCCC3)c2n1
  7%	-3.3
CC1(C)C(O)CC[C@]2(C)C1CC[C@@]1(C)C2C(=O)C=C2[C@@H]3C[C@@](C)(C(=O)O)CC[C@@]3(C)CCC21C (stereo partly specified)
  -9%	0.8
COC(=O)N1C2CC(=O)O[C@@H]3c4cc5c(cc4[C@]1(C)[C@@]3(Br)c1ccccc12)OCO5
  u	4.8[11.7 µM]
CCCn1c(C)nc2c(NCC(C)(C)CN(C)C)nc(C)nc21
  21%	-9.6
COc1ccc(/C=C/NC(=O)c2ccc(OC)cc2)cc1
  -27%	-1.5[11.7 µM]
OCC1(CO)COC(C(Cl)(Cl)Cl)OC1
  26%	0.5
C[C@H](NC(=O)Cc1cc(F)cc(F)c1)C(=O)N[C@@H](C(=O)OC(C)(C)C)c1ccccc1
  9%	1.6
Cc1cc2c(nc1C)CCCN2C[C@@H](O)CN1CCN(C)CC1
  -10%	-3.5[11.7 µM]
COC(=O)[C@@H]1C[C@H]1[C@@H](NC(=O)c1cnccn1)c1ccccc1
  29%	0.3
COC(=O)N1CC=CC1(C)C(=O)NCC1CC1 (stereo unspecified)
  34%[activator]	3.8

# Grouped by structure: the entries above containing bromine (two)
# Every second line gives: Sfp PPTase inh	Menin MLL FP FL
CCOC(=O)CNC(=O)O[C@H]1C(=O)c2cc(OC)ccc2O[C@@H]1c1ccc(OC)c(Br)c1
  18%	6.7
COC(=O)N1C2CC(=O)O[C@@H]3c4cc5c(cc4[C@]1(C)[C@@]3(Br)c1ccccc12)OCO5
  u	4.8[11.7 µM]

# The listing continues.
# Every second line gives: Sfp PPTase inh	Menin MLL FP FL
CCCCC(=O)Oc1ccccc1C(=O)O
  -10%&-4%	42&1.0[activator]
CCCCC(C)/C=C(C)/C=C(\C)C(=O)NC1=CC(O)(/C=C/C=C/C=C/C(=O)NC2=C(O)CCC2=O)C2OC2C1=O (stereo unspecified)
  u	u
COc1cc(CN2CCN(CCCSc3cc(C(C)(C)C)c(O)c(C(C)(C)C)c3)CC2)cc(OC)c1OC
  -6%	-7.4
[O-][n+]1cccc(CO)c1
  1%	-2.4
O=C(O)Cc1ccc(CCNS(=O)(=O)c2ccc(Cl)cc2)cc1
  16%&6%	2.8&-0.1
CCCc1cc2c(n1Cc1ccc(OC)cc1)C(C)C1CN(C(=O)c3ccccc3)C(C)(C(=O)OC)C21 (stereo unspecified)
  5%	9.3
OCC(O)C(O)C(O)C(O)CO (stereo unspecified)
  27%&8%&19%	-14&-5.0&-3.7
COC(=O)[C@@]1(Cc2ccccc2)[C@H]2c3cc(C(=O)N4CCCC4)n(Cc4cccc5ccccc45)c3C[C@H]2CN1C(=O)c1ccccc1
  8%	-4.4
CC1/C=C/C=C/C=C/C=C/C=C/C=C/C=C/C(OC2OC(C)C(O)C(N)C2O)CC2O[C@@](O)(CC(O)CC(O)C(O)CCC(O)CC(O)CC(=O)OC(C)[C@H](C)C1O)CC(O)C2C(=O)O (stereo partly specified)
  -65%	u
CO[C@H]1COC(=O)C/C=C\[C@H](C)COC(=O)[C@@H](OCc2ccccc2)/C=C\[C@@H]1C
  0%	1.5[11.7 µM]
CC(=O)OC[C@@H]1O[C@H](C/C=N\O[C@@H](C)c2cn([C@H](CO)Cc3ccccc3)nn2)C=C[C@@H]1OC(C)=O
  5%&33%	4.8&2.4[11.7 µM]
C=CCOC(=O)N[C@H](/C(C(=O)OC)=C(\C)NCc1ccccc1)c1cccc(C(F)(F)F)c1
  -14%	1.0
CCOc1cc(OCC)c(C(=O)CCC(=O)O)cc1OCC
  29%	3.5
O=C(O)[C@H](O)[C@@H](O)[C@H](O)[C@H](O)CO
  -6%	2.0
CCCCCCCCOc1ccccc1C(=O)Nc1ccc(C(=O)OCC[N+](C)(CC)CC)cc1
  40µM*	-0.5
CO[C@@H](CCOCc1ccccc1)C[C@H]1O[C@H](C(=O)OC(C)C)C=C[C@@H]1C
  9%	1.1
COc1cccc(CCc2ccccc2OCC[C@@H]2C[C@@H](O)CN2C)c1
  u	-11
CC#CCN1c2ccccc2[C@]23C[C@@H](C(=O)OC)N(S(=O)(=O)c4ccc(C(F)(F)F)cc4)C2=NC(C(=O)OC)=C(C(=O)OC)[C@H]13
  11%	-0.3[11.7 µM]
CC(=O)OC1CC[C@@]2(C)C(CC[C@@]3(C)C2CC=C2C4CC(C)(C)CC[C@]4(C)CC[C@@]23C)C1(C)C (stereo partly specified)
  11%	1.6
COC(=O)N1[C@H](C)C=C[C@]1(Cc1ccccc1)C(=O)NCc1ccc(N(C)C)cc1
  -1%	3.4

# (further entries)
smiles,Sfp PPTase inh,Menin MLL FP FL
NCC(=O)O,-21%&-5%,-2.1&-8.6
O=C1C=C[C@@H](O)[C@H]2[C@@H]3C(=O)N(C4CCCCC4)C(=O)[C@@H]3CC[C@H]12,0%,-4.2[11.7 µM]
CC(C)[C@H](N)C(=O)OCC(CO)OCn1cnc2c(=O)[nH]c(N)nc21 (stereo partly specified),15%,-2.7
CCOC(=O)C1=C(N)Oc2ccc(Br)cc2[C@@H]1[C@@H](C#N)C(=O)OCC,-5%,u
NCCCC[C@H](NC(=O)[C@@H]1CCCN1C(=O)[C@H](CO)NC(=O)[C@H](CC(=O)O)NC(=O)CNC(=O)[C@H](CCCN=C(N)N)NC(=O)CN)C(=O)O,-23%,1.6
CO[C@H]1COC(=O)[C@H](C)NC(=O)[C@@H](C)COC(=O)[C@H]2CCCN2C(=O)C/C=C\[C@H]1C,10%,-1.4[11.7 µM]
CCCCCN(CCCCC)C(=O)[C@H](CCC(=O)O)NC(=O)c1ccc(Cl)c(Cl)c1,u,-4.7[24.8 µM]
COC(=O)CCCC1=CC2=CC(=O)C(C)(OC(=O)c3cnc4ccccc4n3)C(=O)C2=CO1 (stereo unspecified),11%,-18
CC(C)[C@H]1CC[C@@H](C)C[C@H]1O,12%,18
COC(=O)[C@@]1(Cc2ccc(OC)cc2)[C@H]2c3cc(C(=O)N4CCCC4)n(CCc4ccccn4)c3C[C@H]2CN1C(=O)c1ccccc1,-3%,-0.2
Cc1ccc(C(=O)Cn2c3c(sc2=N)CCCC3)cc1,9%&-16%,u
C/C=C\C1=C(CO)[C@H](O)[C@H]2O[C@H]2[C@H]1O,8%,0.7[11.7 µM]
COc1ccc2c(c1)O[C@@H](c1ccc3c(c1)OCO3)[C@H](OC(=O)NC1CCCC1)C2=O,-14%,1.1
CC(=O)OC1CC(OC(C)=O)[C@]2(C)C(CC(OC(C)=O)[C@]3(C)C2CC[C@@]2(C)C(c4ccoc4)OC(=O)C4O[C@]432)C1(C)C (stereo partly specified),15%,3.1
C[C@@H](O)[C@H]1C(=O)N2C(C(=O)O)=C(S[C@@H]3CN[C@H](CNS(N)(=O)=O)C3)[C@H](C)[C@H]12,-27%,-4.0
CCC(=O)CC(NC(=O)OC)c1ccccc1 (stereo unspecified),2%,-2.1[11.7 µM]
C[Si](C)(C)C#Cc1ccccc1NC(=S)Nc1ccccc1,79µM*,1.8
COCCNC(=O)[C@@]1(Cc2ccccc2)C=C[C@@H](C)N1C(=O)OC,17%,0.0
COc1cc2c3cc1Oc1c(OC)c(OC)cc4c1[C@@H](Cc1ccc(O)c(c1)Oc1ccc(cc1)C[C@@H]3N(C)CC2)N(C)CC4,12%,-1.0
NC(=O)c1cccc(N)c1,-7%&19%&2%,1.7&-0.7&5.1
COC(=O)c1ccc(C(NC(=O)OCc2ccccc2)/C(=C/[C@@H](C)C(=O)NCc2ccc(C)o2)c2cccnc2)cc1 (stereo partly specified),20%,-0.2

# Sfp PPTase inh: hit marks shown above.
smiles,Sfp PPTase inh,Menin MLL FP FL
C=CC1=C(C)C2=NC1=CC1=NC(=CC3=NC(=CC4=NC(=C2)C(C)=C4CCC(=O)O)C(CCC(=O)O)=C3C)C(C=C)=C1C.[Zn],4.5µM*,u
CCCCCCCCOc1ccccc1C(=O)Nc1ccc(C(=O)OCC[N+](C)(CC)CC)cc1,40µM*,-0.5
C[Si](C)(C)C#Cc1ccccc1NC(=S)Nc1ccccc1,79µM*,1.8
